Bioassay records deposited in PubChem BioAssay by ICCB-Longwood Screening Facility, Harvard Medical School.
PV pol inh – poliovirus RdRp elongation inhibitors, primary screen, biochemical, fluorescence polarization, total intensity; AID 588519, 2011; 150,000 tested, 0.66% active; Genome polyprotein (Poliovirus type 1 (strain Mahoney)), P03300; poliovirus polymerase elongation; stronger effect = lower value; % elongation, % (compound at 16.7 µg/mL); in the data active = % elongation below about 90%; also: some results filed as inactive read as strong as hits
Target sequence (P03300 1749-2209 limits assumed): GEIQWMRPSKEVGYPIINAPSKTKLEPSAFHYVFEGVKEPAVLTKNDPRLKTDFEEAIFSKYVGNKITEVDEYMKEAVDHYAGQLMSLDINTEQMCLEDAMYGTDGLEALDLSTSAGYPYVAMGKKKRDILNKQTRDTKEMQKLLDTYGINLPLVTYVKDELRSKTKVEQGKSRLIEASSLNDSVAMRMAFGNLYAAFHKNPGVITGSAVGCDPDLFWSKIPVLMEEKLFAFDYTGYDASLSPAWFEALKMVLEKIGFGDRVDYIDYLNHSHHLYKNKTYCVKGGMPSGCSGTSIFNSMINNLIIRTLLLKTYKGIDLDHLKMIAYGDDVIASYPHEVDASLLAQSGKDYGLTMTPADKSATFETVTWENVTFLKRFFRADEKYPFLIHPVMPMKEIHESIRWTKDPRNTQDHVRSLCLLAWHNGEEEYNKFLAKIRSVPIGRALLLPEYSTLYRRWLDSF
Mtb MbtI inh – MbtI salicylate synthase inhibitors, primary screen, biochemical, fluorescence intensity | P9WFX0 | purified MbtI enzyme, fluorescence intensity read-out | inhibition, %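 (about 17 µg/mL by stock and volumes)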 | 100,000 tested, 0.89% active | AID 493033, 2011;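 active = above 50% in both replicates, above 80% if mildly self-fluorescent; inactive = the rest, strongly fluorescent compounds included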;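 also: 0% = mean of negative and 100% = mean of positive controls; one replicate is shown; some compounds called inactive have numbers as strong as hits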
Mtb MenB inh – M. tuberculosis MenB inhibitors, primary screen, biochemical, absorbance; 1,4-dihydroxy-2-naphthoyl-CoA synthase (Mycobacterium tuberculosis (strain ATCC 25618 / …; MenB enzyme assay, absorbance read-out; some hits fall short of the stated cut; inhibition, %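 (about 12 µg/mL by stock and volumes)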; 100,000 tested, 0.43% active;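 active = mean of two replicates above 30%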;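 also: 0% = no compound and 100% = wells with inactive enzyme; the first replicate is given; strong numbers were not always called active; inactives centre near -10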
Target sequence (P9WNP5 whole entry, looked up): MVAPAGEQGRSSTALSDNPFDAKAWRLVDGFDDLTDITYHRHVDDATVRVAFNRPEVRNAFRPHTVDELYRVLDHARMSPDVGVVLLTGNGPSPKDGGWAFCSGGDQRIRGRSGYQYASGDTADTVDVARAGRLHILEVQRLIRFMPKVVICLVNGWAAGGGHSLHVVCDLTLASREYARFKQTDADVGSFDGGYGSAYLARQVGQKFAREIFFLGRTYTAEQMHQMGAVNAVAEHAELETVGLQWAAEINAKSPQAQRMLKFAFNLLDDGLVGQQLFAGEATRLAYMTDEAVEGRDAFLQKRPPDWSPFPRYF
PV pol inh intensity – further read-out of PV pol inh, marked with its call; % elongation; measured here: total intensity read-out; formula for this scale not given here;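 total fluorescence in place of polarization; lower means less elongation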
* = called active by the depositor; x = no result given; & = joins results of further samples.

Each structure is followed by: PV pol inh, Mtb MenB inh, PV pol inh intensity, Mtb MbtI inh
1: Cc1csc(=O)n1CCN(C)CC(=O)Nc1ccc(Cl)c(C(F)(F)F)c1
  106, -20, 104, -4
2: COc1ccc(-c2noc(N3CCCC(C(=O)Nc4cccnc4)C3)n2)cc1 (configuration not stated)
  100, -23, 105, -3
3: O=C(CN1CCN(c2ccc(S(=O)(=O)N3CCCC3)cn2)CC1)Nc1ccc(Cl)c(C(F)(F)F)c1
  97, 1, 98, 6
4: CC(=O)Nc1cccc(C(=O)N2CCN(Cc3ccc4c(c3)OCO4)CC2)c1
  103, 23, 101, -3
5: COc1ccc(C(=O)Nc2ccccc2C(=O)NCc2ccco2)cc1
  103, -63, 98, 50
6: COc1cc(C(=O)OCCCn2c(=O)c3c(ncn3CCCN(C)C)n(C)c2=O)cc(OC)c1OC
  104, -15, 105, -4
7: CCOC(=O)c1cc(-c2ccc(S(=O)(=O)NCCN3CCC(C)CC3)s2)on1
  100, -20, 102, -14
8: CC(C)n1cnc2cc(NC(=O)c3ccco3)ccc21
  103, 13, 102, 24
9: CC(C)(C)OC(=O)N1CCN(c2ccc(NC(=O)c3cc4ccccc4oc3=O)cc2)CC1
  100, -3, 100, -12
10: O=C(CN1CCCc2ccccc21)N1CCCC1c1ccc2c(c1)OCCCO2 (configuration not stated)
  103, -16, 104, -9
11: Cc1cccn2c(=O)cc(CN3CCCC3c3ccc4c(c3)OCCO4)nc12 (configuration not stated)
  107, -13, 116, -8
12: COCc1nc(OC)c2c(C)c(C(=O)O)sc2n1
  105, -16, 108, 2
13: O=C(CCCn1ncn2c(cc3occc32)c1=O)N1CCc2ccccc2C1
  101, -3, 104, -2
14: O=C(Cc1nc2ccccc2[nH]1)NCc1ccco1
  102, x, 105, -18
15: O=C(N/N=C/c1ccccc1O)C1SCCCS1
  108, -99, 106, -8
16: CC1CN=C(NCCc2ccccc2)S1 (configuration not stated)
  102, x, 99, 0
17: Cc1noc(C)c1CSc1nc(-c2ccccc2)cs1
  103, -10, 108, 4
18: Cc1noc2[nH]c(=O)cc(C(F)(F)F)c12
  104, x, 108, 92
19: Cc1ccccc1Cn1cc(NC(=O)c2cc(C3CC3)on2)cn1
  99, -2, 101, 11
20: O=S(=O)(NC1CCCCC1)c1cc(Cl)ccc1Cl
  101, -5, 102, -11
21: CC(=O)OCc1ccc(COC(C)=O)c(OC(C)=O)c1OC(C)=O
  102, 10, 100, -4
22: COC(=O)c1cc(S(=O)(=O)NCc2csc(-c3cccs3)n2)oc1C
  102, -11, 102, 26
23: O=C(CSC1=NC=NC2N=CNC12)N1CCN(Cc2ccc3c(c2)OCO3)CC1 (configuration not stated)
  104, -7, 102, 2
24: Oc1ccc2oc3c(c2c1/C=N/n1cnnc1)CCCC3
  99, -88, 102, 0
25: CN(C)CCNC(=O)c1cc2c(Cl)nc3ccccc3c2s1
  99, -11, 104, 5
26: Cc1ccccc1N=c1scc(-c2ccc3c(c2)NC(=O)CO3)n1Cc1ccco1
  102, -32, 105, -9
27: Cc1cc(F)ccc1S(=O)(=O)Nc1ccc(O)c(Sc2ncn[nH]2)c1
  103, -26, 101, 40
28: COc1cc(OC)c(NC(=O)NCCCN2CCC(N3CCCCC3)CC2)cc1Cl
  99, 0, 104, 3
29: CC(C)=C1C2C=CC1c1ccccc12
  104, -12, 100, -5
30: C(=N\c1nccs1)/c1cccnc1
  102, 2, 98, x
31: NS(=O)(=O)c1ccc(CCNC(=O)c2cc(=O)c3ccccc3o2)cc1
  101, 0, 101, 15
32: O=C(O)CCCOc1ccccc1F
  100, -38, 106, -6
33: O=C(OCC(=O)N1CCCC1=O)c1cccc(-n2cccc2)c1
  103, -33, 106, -3
34: CCC(C)NC(=O)c1c[nH]c2ccc(S(=O)(=O)N(CC)c3ccccc3)cc2c1=O (configuration not stated)
  105, -27, 104, -387
35: Cc1cc(C)c2nc(N3CCN(CCO)CC3)cc(C)c2c1
  103, -15, 106, 103
36: O=c1c2cc3c(cc2[nH]c(=S)n1C1CCN(Cc2ccccc2)CC1)OCO3
  102, 1, 104, -6
37: Cc1ccc(N=C2NC(=O)C(Cc3cccc(C(F)(F)F)c3)S2)cc1 (configuration not stated)
  103, 6, 105, x
38: COc1ccc(CCNC(=O)CN2C(=O)CCS(=O)c3ccccc32)cc1OC (configuration not stated)
  103, -23, 103, 0
39: O=C1C=C(O)c2cccc3cccc1c23
  61, -396, 148, 58
40: Cc1noc(C)c1CSc1ncccc1C(=O)N1CCc2ccccc21
  106, -22, 115, 30
41: CN1CCCCC1CC(=O)O (configuration not stated)
  101, 8, 101, 3
42: CC(C)Cc1nc2ccccc2n1Cc1ccccc1
  104, -24, 102, -10
43: Cn1c(=O)c2c(nc(SCC(=O)NC(C)(C)C)n2C)n(C)c1=O
  104, -31, 109, -10
44: COc1cc(S(=O)(=O)N2CCOCC2)ccc1NC(=O)COC(C)=O
  104, 3, 102, 0
45: COc1ccc(-c2ccc(SCC(=O)N3CCC(C)CC3)nn2)cc1
  102, -2, 103, -9
46: Cn1c(=O)c(C#N)nn(-c2ccccc2)c1=O
  101, -9, 103, 9
47: O=C(c1ccc(C23CC4CC(CC(C4)C2)C3)o1)N1CCOCC1
  101, -23, 102, -14
48: CCSc1nnc2c(n1)OC1(Nc3ccccc3-2)C(=O)Nc2ccc(Br)cc21 (configuration not stated)
  95, -40, 90, x
49: COc1ccc2c(c1)c1nc(N(C)C)nc3c1n2CCN3C
  6.0*, -28, -20*, -48
50: CCOC(=O)c1cnc(-c2cccs2)nc1Nc1ccc(Cl)cc1
  106, -6, 108, -11
51: COC(=O)c1ccc(C)c(NS(=O)(=O)c2ccc3c(c2)c(=O)sn3C)c1
  101, -8, 102, 2
52: CN(CCCC(=O)O)c1nc(-c2ccc(F)cc2)cs1
  101, -16, 102, 0
53: COc1cccc(N(C)S(=O)(=O)c2ccc(C)c(C)c2)n1
  106, -26, 120, -7
54: COc1ccc(-n2c(C)cc(C(=O)COC(=O)c3ccc(O)cc3O)c2C)cc1
  106, 0, 106, 7
55: O=C(CCn1c(=O)c2cccn2c2cccnc21)NC1CCCc2ccccc21 (configuration not stated)
  100, 1, 101, -21
56: Cc1ccc(-c2nnc(SCC(=O)NC(=O)CN3CCCC3=O)o2)cc1C
  100, -10, 94, -4
57: O=C1CN(C(=O)c2ccco2)C(c2ccccc2)c2cc(Br)ccc2N1 (configuration not stated)
  99, 13, 101, -2
58: COc1cc(C(=O)Nc2ccccc2C(=O)NCc2cccnc2)cc(OC)c1OC
  101, -8, 105, 3
59: Cc1ccc(N2CC(NC(=O)NCCCc3ccccc3)CC2=O)cc1 (configuration not stated)
  97, -23, 112, -15
60: COC(=O)c1[nH]c(CN2NS(=O)(=O)c3ccccc3C2=O)c(C(=O)OC)c1C
  100, -8, 114, 13

Complete entries, looked up by structure.
`O=C1CN(C(=O)c2ccco2)C(c2ccccc2)c2cc(Br)ccc2N1` (configuration not stated) is listed as PV pol inh = 99; Mtb MenB inh = 13; PV pol inh intensity = 101; Mtb MbtI inh = -2
`Cc1csc(=O)n1CCN(C)CC(=O)Nc1ccc(Cl)c(C(F)(F)F)c1` is listed as PV pol inh = 106; Mtb MenB inh = -20; PV pol inh intensity = 104; Mtb MbtI inh = -4

(list continues)
Each structure is followed by: PV pol inh, Mtb MenB inh, PV pol inh intensity, Mtb MbtI inh
61: c1ccc2sc(NC3=NCN(C4CCCCCC4)CN3)nc2c1
  102, 2, 108, 3
62: O=C(CCc1ccccc1)N1CCCN(C(=O)CCc2ccccc2)CC1
  103, -13, 107, -10
63: COc1cccc(C2=NS(=O)(=O)N(C)C(C(=O)NCCN3CCOCC3)=C2)c1
  102, -25, 100, 8
64: Cc1cccc(Oc2cc(C)nc3ccc(C)cc23)c1
  108, -12, 110, x
65: CCNS(=O)(=O)c1ccc(C)cc1
  104, -12, 104, 10
66: O=C(O)c1[nH]c2ccccc2c1CNC1CCCC1
  101, -25, 97, 121
67: CC(C)[C@H](NC(=O)c1ccco1)C(=O)NC1CC1
  103, -13, 107, -7
68: CCC(CC)C(=O)OCc1ccc(C#N)cc1
  100, x, 97, -1
69: C(=C\c1ccccc1)/CSc1nc2ccccc2o1
  103, -24, 103, 13
70: Cn1c(=O)c2ccccc2n(CC(=O)Nc2ccc3c(c2)OCO3)c1=O
  101, -48, 103, -12
71: CCOC(=O)C1=C(C)NC(=O)C1CC(=O)O (configuration not stated)
  99, 2, 99, 5
72: OCCN(C=NC1=NN(c2ccccc2)CC1)CCO
  105, 5, 113, x
73: Cc1ccc(NC(=O)c2c(-n3c(C)cc(C=NO)c3C)sc3c2CCCC3)cc1
  97, -14, 103, 4
74: CC1CN(C(C)(C)C)CCC1(O)c1ccccc1 (configuration not stated)
  101, 34*, 101, -1
75: O=S1(=O)CCN2C=CSC2=N1
  102, -20, 91, 4
76: Cc1ccc(-n2c(SCC(=O)c3cn(CCC#N)c4ccccc34)nnc2-c2ccccc2)cc1C
  105, -1, 100, -21
77: O=c1c2ccccc2ncn1CCOc1ccc(CO)cc1
  103, -14, 104, -16
78: CC(=NCCN1CCOCC1)C1=C(O)c2ccccc2C1=O
  104, -54, 101, 31
79: COc1ccc(C(=O)N2CC(=O)Nc3ccccc32)cc1
  102, -23, 104, -11
80: CCOC(=O)C1CCN(S(=O)(=O)Cc2ccc(Cl)cc2)CC1
  100, 4, 100, -2
81: O=S(=O)(Cc1ccccc1)Nc1nc2ccccc2s1
  100, -11, 104, x
82: Cc1c(NC(=O)CCCN2C(=O)/C(=C\c3ccco3)SC2=S)c(=O)n(-c2ccccc2)n1C
  104, -229, 105, 17
83: Cc1ccccc1Nc1c(-c2ccc(N(C)C)cc2)nc2ccccn12
  102, -15, 101, 50
84: Cc1ccc2cc(C(N)=O)c(=N)oc2c1
  100, -1, 102, -26
85: COc1ccc(-c2c(C)oc3ccc(C)cc23)cc1
  112, -25, 113, x
86: Cc1cc(Nc2ccc(Cl)cc2)n(-c2ccccc2)n1
  99, -34, 106, -7
87: CCOc1ccccc1CN(CCc1ccc2c(c1)OCO2)Cc1ccccn1
  103, -18, 102, -8
88: NC(=O)NC(=O)CSC1CCCC1
  105, 5, 98, 2
89: O=C(Nc1ccc2c(c1)OCO2)c1cccn(OCc2ccccc2F)c1=O
  103, -27, 101, -6
90: Cc1ccc(C(=O)Nn2cnc3scc(-c4cccs4)c3c2=O)c(O)c1
  106, -16, 114, 1
91: O=C(Nc1cccc(C(F)(F)F)c1)C1CC2CCCC(C1)C2=O (configuration not stated)
  99, -37, 99, -6
92: COc1ccc(OC)c(S(=O)(=O)N2CCCC2C(=O)NC(C)c2ccccc2)c1 (configuration not stated)
  105, -25, 100, -5
93: COc1ccc(NC(=O)Cn2cc(C#N)c3ccccc32)cc1
  99, -1, 99, -11
94: Cc1cc(Br)cc2c(N=NC(N)=O)c(O)n(C)c12
  100, 10, 100, 3
95: COC(=O)C1CCN(c2c(N)n(Cc3ccccc3)c(=O)[nH]c2=O)CC1
  101, -11, 106, 9
96: CC1CN(CC(=O)Nc2ccc(C#N)cc2)CC(C)O1 (configuration not stated)
  103, 8, 104, -3
97: O=C(NC(=O)c1c(Cl)cccc1Cl)Nc1nc2cc(F)ccc2s1
  107, -13, 113, -12
98: CC1(C)CC2CC(C)(CN2C(=O)c2cccs2)C1 (configuration not stated)
  100, -31, 102, 31
99: O=C1NC(=O)C(Cc2ccccc2)C(=O)N1
  102, -15, 104, -8
100: COCC(C)n1cccc1 (configuration not stated)
  101, -28, 104, -11
101: O=C(OCc1ccccc1)N1CCOCCOCCOCC1
  105, -85, 99, 1
102: O=C(Cc1csc(-c2ccsc2)n1)Nc1cccc(C(=O)NC2CC2)c1
  99, -14, 88, -4
103: O=C(O)c1c(-n2cccc2)sc2c1CCSC2
  93, -8, 98, 16
104: COc1cc(/C=C(\C#N)C(N)=O)cc(CSc2nc3ccccc3s2)c1O
  102&101, -27, 100&100, 18

A second format for four compounds above:
No.	SMILES	PV pol inh	Mtb MenB inh	PV pol inh intensity	Mtb MbtI inh
29	CC(C)=C1C2C=CC1c1ccccc12	104	-12	100	-5
55	O=C(CCn1c(=O)c2cccn2c2cccnc21)NC1CCCc2ccccc21 (configuration not stated)	100	1	101	-21
95	COC(=O)C1CCN(c2c(N)n(Cc3ccccc3)c(=O)[nH]c2=O)CC1	101	-11	106	9
97	O=C(NC(=O)c1c(Cl)cccc1Cl)Nc1nc2cc(F)ccc2s1	107	-13	113	-12
